Mtb MenB inh = blocks the Mycobacterium tuberculosis MenB enzyme; inhibition, %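 (about 12 µg/mL by stock and volumes)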; 100,000 tested, 0.43% active; P9WNP5; MenB enzyme assay, absorbance read-out; some hits fall short of the stated cut; AID 540299;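 active = mean of two replicates above 30%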;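 note: 0% = no compound and 100% = wells with inactive enzyme; the first replicate is given; strong numbers were not always called active; inactives centre near -10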
Target sequence (P9WNP5 whole entry, looked up): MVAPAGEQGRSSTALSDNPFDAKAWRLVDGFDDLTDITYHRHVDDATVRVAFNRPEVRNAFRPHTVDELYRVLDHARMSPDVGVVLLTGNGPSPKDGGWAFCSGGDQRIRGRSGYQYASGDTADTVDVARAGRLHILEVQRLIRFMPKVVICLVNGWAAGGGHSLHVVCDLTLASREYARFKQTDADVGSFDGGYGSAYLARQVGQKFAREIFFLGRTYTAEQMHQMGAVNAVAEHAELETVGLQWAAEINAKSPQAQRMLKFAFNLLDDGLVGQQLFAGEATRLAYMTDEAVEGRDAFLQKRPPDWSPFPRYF
PV pol inh = inhibitors of poliovirus RNA polymerase binding and polymerization; P03300; poliovirus polymerase elongation, fluorescence polarization; active compounds read low; % elongation, % (compound at 16.7 µg/mL); 150,000 tested, 0.66% active; AID 588519; in the data active = % elongation below about 90%; note: some results filed as inactive read as strong as hits
MbtI inh = inhibitors of Mycobacterium tuberculosis siderophore enzyme MbtI | purified MbtI enzyme, fluorescence intensity read-out | inhibition, %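 (about 17 µg/mL by stock and volumes)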 | 100,000 tested, 0.89% active | AID 493033;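 active = above 50% in both replicates, above 80% if mildly self-fluorescent; inactive = the rest, strongly fluorescent compounds included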;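 note: 0% = mean of negative and 100% = mean of positive controls; one replicate is shown; some compounds called inactive have numbers as strong as hits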
Target sequence (P9WFX0 whole entry, looked up): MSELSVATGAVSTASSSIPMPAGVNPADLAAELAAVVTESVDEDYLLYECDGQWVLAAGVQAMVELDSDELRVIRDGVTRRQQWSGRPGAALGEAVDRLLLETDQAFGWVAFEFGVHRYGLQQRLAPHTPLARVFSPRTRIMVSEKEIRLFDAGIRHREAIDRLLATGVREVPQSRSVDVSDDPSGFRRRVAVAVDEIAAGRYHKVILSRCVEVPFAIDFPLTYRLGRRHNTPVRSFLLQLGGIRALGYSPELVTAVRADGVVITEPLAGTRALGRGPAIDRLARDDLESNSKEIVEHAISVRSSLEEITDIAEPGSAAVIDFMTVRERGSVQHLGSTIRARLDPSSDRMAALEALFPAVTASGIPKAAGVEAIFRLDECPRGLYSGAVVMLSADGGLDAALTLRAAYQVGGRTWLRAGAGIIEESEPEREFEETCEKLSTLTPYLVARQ
PV pol inh intensity = also measured in PV pol inh; calls as there; % elongation; measured here: total intensity read-out; formula for this scale not given here;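 total fluorescence in place of polarization; lower means less elongation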
* marks the source's active call; other numbers are inactive results; i = inactive; / = not tested or not shown; & = joins results of further samples.

SMILES	Mtb MenB inh	PV pol inh	PV pol inh intensity	MbtI inh
COc1cc2c(C(=O)NCc3ccc4c(c3)OCO4)cn(C)c(=O)c2cc1OC	3.2	100.0	100.0	-5.0
Cc1nn(CC(=O)O)c(=N)s1	-28.1	99.0	102.0	-6.2
Cc1cc(C)c(C#N)c(SCc2cc(=O)[nH][nH]2)n1	-124.5	101.0	99.0	/
Nc1cccc(C2=NCCN2)c1	1.6	104.0	102.0	/
N#Cc1ccc(CSc2nc3ccc(Cl)cc3[nH]2)cc1	5.0	105.0	103.0	6.9
O=C1C(Nc2ccccc2)=CC(=O)c2ncccc21	-7.2	82.0*	77.0*	3.4
CSc1nc2ccc(S(=O)(=O)N3CCCC3)cc2s1	-16.6	101.0	86.0	/
Nc1nnnn1N=Cc1ccc(-c2ccc3c(c2)COC3=O)o1	-22.2	82.0	141.0	6.8
COc1ccc(-c2nnc(NC(=O)C3CC3)o2)cc1	-11.2	103.0	107.0	16.4
CC(Oc1cc(OC(C)C(=O)O)c2c(c1)oc(=O)c1ccccc12)C(=O)O (stereo not given)	-11.3	97.0	103.0	103.3

4 entries out of the list, ordered by molecular weight, low to high:
SMILES	Mtb MenB inh	PV pol inh	PV pol inh intensity	MbtI inh
Nc1cccc(C2=NCCN2)c1	1.6	104.0	102.0	/
Cc1nn(CC(=O)O)c(=N)s1	-28.1	99.0	102.0	-6.2
O=C1C(Nc2ccccc2)=CC(=O)c2ncccc21	-7.2	82.0*	77.0*	3.4
Cc1cc(C)c(C#N)c(SCc2cc(=O)[nH][nH]2)n1	-124.5	101.0	99.0	/

(further entries)
SMILES	Mtb MenB inh	PV pol inh	PV pol inh intensity	MbtI inh
CC(=O)N1CCc2cc(S(=O)(=O)CCC(=O)N3CCc4ccccc43)ccc21	-24.8	105.0	108.0	-6.0
CCOC(=O)CN1CC23C=CC(O2)C(C(=O)NCc2ccc(C)cc2)C3C1=O (stereo not given)	10.9	101.0	102.0	-1.1
N#CC1=C(N)SC(N)=C(C#N)C1CCC1CCCCC1	-11.8	77.0	193.0	50.7
Cc1ccc(C2=NC3(CCN(C(=O)OC(C)(C)C)CC3)NC2=S)cc1	-19.6	103.0	107.0	10.2
Fc1cccc(NC(=S)NCc2ccc3c(c2)OCO3)c1	-1.0	108.0	114.0	-5.1
NC(=O)CS(=O)(=O)c1ccccc1	/	101.0	96.0	-3.6
O=S1(=O)CCC(c2ccccc2)C1 (stereo not given)	-14.4	100.0	100.0	-22.3
CCOC(=O)CSc1nc(C(C)(C)C)cc(C(F)(F)F)c1C#N	-3.3	101.0	102.0	-14.4
CCOC(=O)N1CCC(n2c(SCC(=O)c3ccccc3)nc3ccccc3c2=O)CC1	-3.5	102.0	96.0	-11.2
CCN(C(=O)Cn1ncc2c(=O)oc3ccc(C)cc3c21)c1ccccc1	-18.8	100.0	104.0	-4.5
COc1ccc(Br)cc1/C=C/C(=O)NCC(=O)O	2.4	101.0	100.0	21.5
Cn1nc(CC(=O)Nc2nc(-c3ccccc3)cs2)c2ccccc2c1=O	-5.7	103.0	108.0	-8.2
Cc1ccc(-c2nc(I)ccc2O)cc1	38.6*	99.0	102.0	i
COC(=O)c1ccc(S(=O)(=O)N2CCN(C)CC2)n1C	2.3	102.0	104.0	-2.8
COc1ccc(-c2nn(-c3ccccc3)cc2/C=N/O)cc1	-18.5	101.0	99.0	6.6
CCCNC(=O)c1ccc2c(c1)C(=O)N(CC(C)C)C2=O	-8.3	101.0	102.0	-14.9
Cc1cccc2c(O)c(/C=C3/C(=O)N(c4ccccc4)NC3c3ccccc3)c(=O)[nH]c12 (stereo not given)	-120.2	102.0	114.0	/
COc1ccccc1CNC(=O)CCn1c(=O)c2ccccc2n(Cc2ccc(F)cc2)c1=O	-14.8	102.0	102.0	5.2
COc1ccc(CN(Cc2ccco2)C(=O)c2cc3ccccc3oc2=O)c(OC)c1	1.9	103.0	102.0	9.0
CCCn1nc(C(=O)NC2CCC(C)CC2)ccc1=O (stereo not given)	-27.5	99.0	99.0	-4.0
CCC(=O)N1CCc2cc(S(=O)(=O)CCC(=O)N(C)c3ccc(Br)cc3)ccc21	-11.4	102.0	97.0	2.6
S=c1n(CN2CCCC2)nc(C2COc3ccccc3O2)n1-c1ccccc1 (stereo not given)	-8.7	100.0	102.0	21.0
O=S(=O)(c1ccc(SCc2cc3c(cc2Br)OCCO3)nc1)N1CCOCC1	-28.6	104.0	103.0	-4.3
Cc1n[nH]c(=O)c2noc(/C=C/c3ccc(C(F)(F)F)cc3)c12	-26.9	103.0	95.0	14.5
O=C(COc1ccccc1)Nc1ccccc1	-23.0	102.0	102.0	-17.4
Cc1cc(Cl)ccc1OC(C)C(=O)N=Nc1c(O)n(CO)c2ccccc12 (stereo not given)	-64.0	103.0	108.0	4.3
COc1ccc(C(=O)OCC(=O)NCc2ccc3c(c2)OCO3)cc1S(=O)(=O)N1CCOCC1	3.7	98.0	103.0	11.4
CC(=O)Nc1ccc2c(c1)C1C=CCC1C(c1cccc(Cl)c1Cl)N2 (stereo not given)	1.9	103.0	110.0	/
Cc1cccc(C=Nc2ccc3[nH]ncc3c2)c1O	-23.3	103.0	102.0	87.7
Cc1cc(=O)[nH]c(SCc2ccc(C(=O)Nc3nccs3)cc2)n1	-9.3	102.0	104.0	2.8
Cc1ccc2[nH]c(=O)c(CN3CCOCC3)c(-c3ccccc3)c2c1	/	101.0	95.0	-2.9
Cc1ccc(-c2cc(=O)n(-c3nc(C)cc(C)n3)[nH]2)cc1	-27.9	102.0	103.0	-0.8
Oc1ccc(Cl)cc1Cc1cc(Cl)ccc1O	-19.9	98.0	99.0	-6.8
C=CCn1c(=S)sc2c(SCC(N)=O)ncnc21	-23.1	102.0	102.0	8.2
O=C(O)c1ccc(C2Nc3ccccc3C3C=CCC32)cc1 (stereo not given)	-17.8	59.0*	74.0*	/
COC(=O)Nc1ccc(SCC(=O)c2ccccc2)cc1	-20.9	106.0	102.0	-2.4
COc1cccc(C(=O)NCCNc2nc3cc(C)cc(C)c3cc2C#N)c1	-2.9	102.0	101.0	-61.3
CCOC(=O)c1ccc2nc(C(F)(F)F)nc(NCCCN3CCCC3=O)c2c1	5.2	100.0	103.0	85.2
CC(C)(C)NC(=O)CSc1nc2ccccc2nc1SCC(=O)NC(C)(C)C	-15.9	104.0	101.0	/
O=C1C=CC(=O)C(Nc2ccccc2)=C1	/	100.0	100.0	98.7*
Cc1ccc(S(=O)(=O)c2nc(-c3ccccc3)oc2Sc2nc3ccccc3[nH]2)cc1	-21.0	105.0	101.0	14.8
CCOC(=O)N1CCC(n2c(SCC(=O)Nc3ccc(C)c(Cl)c3)nc3ccccc3c2=O)CC1	-20.9	102.0	101.0	1.5
CCOc1ccccc1C(=O)N(c1ccccc1)C1C=CS(=O)(=O)C1 (stereo not given)	10.8	104.0	106.0	-6.5
COc1ccc(-n2cc(-c3ccccc3)nc2SCC(=O)c2ccccc2)cc1	-44.8	101.0	104.0	2.3
CC(C)/C=C1\CC/C(=C\c2ccc(N(C)C)cc2)C1=O	-6.5	76.0	185.0	3.5
COc1ccc2nc(Cl)c(CNC3CCCC3)cc2c1	-24.0	104.0	101.0	39.1
Cc1cn(C(=O)c2ccc(Cl)cc2Cl)c(C)n1	-4.4	107.0	114.0	/
CC(C)Cn1c(CN(Cc2ccccc2)Cc2ccccc2)nc2c1c(=O)[nH]c(=O)n2C	-20.2	103.0	105.0	-11.9
CC(=O)N1c2ccccc2NC2=C(C(=O)CC(c3ccccc3F)C2)C1c1ccccc1 (stereo not given)	-17.3	101.0	103.0	/
Cc1sc(NC(=O)Nc2ccccc2)c(C(N)=O)c1C	-44.2	97.0	97.0	74.9
(cont.)
SMILES	Mtb MenB inh	PV pol inh	PV pol inh intensity	MbtI inh
COc1cccc(CNc2ccc(N3CCCCC3)cc2)c1OC	-15.1	103.0	103.0	-216.3
COC(=O)CSc1nc(C)nc2c1c(=O)n(C)c(=O)n2C	-19.1	102.0	106.0	-11.8
COc1ccc(NC(=O)Nc2ccc(N3CCOCC3)cc2)cc1	-9.2	101.0	104.0	0.4
CSc1nnc(-c2csc(S(=O)(=O)Nc3cccc(Cl)c3)c2)n1C	-0.8	103.0	101.0	7.0
Oc1ccccc1CNc1ccc(C2CCCCC2)cc1	-11.4	105.0	104.0	/
NC(=Nc1cc(Cl)cc(Cl)c1)N1CCN(Cc2ccccc2)CC1	-9.2	97.0	97.0	/
O=c1[nH]cc(S(=O)(=O)NCc2ccccc2)c(=O)[nH]1	8.8	99.0	105.0	-6.5
CCOc1ccc(NC(=S)N(C)Cc2nccn2C)cc1	7.3	105.0	111.0	0.6
CCC1CCCCN1CCCNC(=O)C1CCCN(S(=O)(=O)N2CC(C)CC(C)C2)C1 (stereo not given)	14.6	100.0	93.0	13.1
CC(=O)Nc1ccc(N=Cc2cccc3ccccc23)cc1	-11.1	105.0	107.0	/

Compound profiles, as listed above:
COc1cccc(CNc2ccc(N3CCCCC3)cc2)c1OC as listed: Mtb MenB inh: -15.1; PV pol inh: 103.0; PV pol inh intensity: 103.0; MbtI inh: -216.3
CCC1CCCCN1CCCNC(=O)C1CCCN(S(=O)(=O)N2CC(C)CC(C)C2)C1 (stereo not given) as listed: Mtb MenB inh: 14.6; PV pol inh: 100.0; PV pol inh intensity: 93.0; MbtI inh: 13.1

In a second layout: results already given
Second line of a record: Mtb MenB inh	PV pol inh	PV pol inh intensity	MbtI inh
- CSc1nnc(-c2csc(S(=O)(=O)Nc3cccc(Cl)c3)c2)n1C
→ -0.8	103.0	101.0	7.0
- Oc1ccccc1CNc1ccc(C2CCCCC2)cc1
→ -11.4	105.0	104.0	/

(list continues)
SMILES	Mtb MenB inh	PV pol inh	PV pol inh intensity	MbtI inh
O=S(=O)(c1ccccc1)n1nccc1-c1cc(-c2ccccc2)no1	-15.4	104.0	102.0	7.1
CCCN1C2CCCC1CC(NC(=O)Nc1ccc(SC)cc1)C2 (stereo not given)	-112.3	102.0	101.0	-9.6
CC1CC(C(F)(F)F)n2nc(C(=O)O)cc2N1 (stereo not given)	-9.9	110.0	105.0	/
O=C(CSc1ccccc1)Oc1ccc2c(c1)OCO2	-1.7	103.0	101.0	-7.0
CCN(CC)Cc1cc(C2N(C(C)=O)c3cccc4cccc(c34)N2C(C)=O)ccc1O	3.5	103.0	105.0	2.5
O=C(O)C1CC(c2ccccc2)=NO1 (stereo not given)	25.9	101.0	99.0	-0.7
O=c1cc(CP(=O)(c2ccccc2)c2ccccc2)[nH][nH]1	-36.9	102.0	106.0	-9.9
CCOC(=O)N1CCC(NC(=O)Cn2c3ccccc3c3cn[nH]c(=O)c32)CC1	3.3	98.0	102.0	0.5
CN1CCN(C(=O)/C(=C/c2cn(S(=O)(=O)N(C)C)c3ccccc23)NC(=O)c2ccccc2)CC1	3.7	103.0	103.0	7.8
CCCc1nnc2sc(NC(=O)CC)nn12	-38.6	102.0	95.0	-2.5
Cc1onc(-c2ccccc2)c1C(=O)NCC#N	-56.3	104.0	103.0	-20.1
Cc1ccc(C)n1CCN(C(C)C)C(C)C	-44.9	105.0	115.0	-4.3
Cc1ccccc1OC(=O)c1ccc2c(c1)C(=O)N(C)C2=O	-10.8	102.0	100.0	-17.5
O=C(CN1C(=O)/C(=C/c2cccc(Br)c2)SC1=S)NCCc1ccccc1	-17.7	103.0	98.0	4.2
C=CCn1c(SCc2ccc(C(=O)O)cc2)nnc1-c1cccc(OC)c1	5.7	99.0	105.0	/
O=C(Nc1ccccc1)c1cccc(I)c1	-60.4	100.0	100.0	-0.8
COc1cc(C(=O)NNc2ccccc2)cc(OC)c1OC	-34.6	103.0	103.0	-13.5
COc1ccc(N2CCSC2C(=O)NN)cc1 (stereo not given)	-5.8	102.0	103.0	-16.6
Cc1cc(SCC(=O)O)nc2ccccc12	/	99.0	102.0	-5.1
CC(=O)N[C@@H](CC(C)C)C(=O)O	-11.6&8.0	100.0&99.0	102.0&100.0	-10.6&-11.1
O=C(O)Cc1ccc(-n2c(-c3ccncc3)n[nH]c2=S)cc1	-37.1	103.0	101.0	7.3
CC1CCN(S(=O)(=O)c2ccc3c(c2)CCN3C(=O)Nc2ccccc2)CC1	0.0	101.0	103.0	3.1
COC(=O)c1ccc(NC(=O)CSc2nc(=O)cc(N)n2CCc2ccccc2)cc1	-21.9	107.0	111.0	/
Cc1ccc2c(c1)c1c(c(=O)n(-c3ccccc3)c(=O)n1CC(=O)c1ccccc1)n2C	-0.2	102.0	100.0	-3.7
COc1ccccc1NC(=O)CSC1=NCCS1	23.3	103.0	106.0	28.7
S=C(Nc1ccccc1)N(Cc1ccccc1)Cc1ccccc1	-60.6	102.0	98.0	-3.4
CCCc1cc(=O)n2nc(N(C)CC(=O)N3CCCC3)sc2n1	-51.9	102.0	100.0	-4.3
O=C(NN=C1CCCCC1)NC1CCCCC1	-15.7	104.0	109.0	1.4
Cc1ccc(S(=O)(=O)N(CCC(N)=O)c2ccccc2)cc1	-6.5	101.0	101.0	-8.4
CNC(C)[C@H](O)c1ccccc1 (stereo not given in full)	2.1	101.0	103.0	-18.5
CCc1nc2n[nH]c(N)c2c2c1COC(C)(C)C2	-9.2	102.0	97.0	/
COc1ccc(-c2nn(-c3ccccc3)cc2C=Nc2ccc(O)cc2)cc1	/	103.0	97.0	-13.9
CCOC(=O)c1c(N)n(CCO)c2nc3ccccc3nc12	-66.8	102.0	104.0	121.2
NC(=O)c1cccc(N=Cc2cc(Br)ccc2O)c1	-12.8	97.0	105.0	-33.3

Source: PubChem (ICCB-Longwood Screening Facility, Harvard Medical School)
